Screening data deposited in PubChem BioAssay by Southern Research Institute.
total CFTR = total CFTR protein upregulators, primary screen, cell-based, HeLa F508del-CFTR, immunofluorescence, viability (AID 1224863); Cystic fibrosis transmembrane conductance regulator (Homo sapiens); HeLa F508del-CFTR, immunofluorescence total CFTR, 24 h; by the record results were divided by relative cell number; some inactives read as strong as hits; calls, or highest fold increase where a dose series was run; actives 0.1% (n = 10,000); in the data nearly all actives have a first-pass fold increase above 1.5; a few of its hits are not listed in these tables;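 also: total CFTR protein by anti-CFTR immunofluorescence in fixed cells; first pass at 25 µM or 10 µg/mL by library and series up to twice that; 1 = untreated cells; first-pass hits also needed half or more of the cells alive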
total CFTR fold 25 µM = also measured in total CFTR; calls as there; fold increase; measured here: primary screen single dose 25 uM; library dosed in µM
total CFTR fold 10 ug/mL = second read-out of total CFTR, no call of its own (marks repeat the call); fold increase; measured here: primary screen 10 ug/mL
total CFTR viability 25 µM = also measured in total CFTR; calls as there; viability, %; measured here: primary viability 25 uM; library dosed in µM;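 0% = killed and 100% = untreated cells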
total CFTR viability 10 ug/mL = further read-out of total CFTR, marked with its call; viability, %; measured here: primary viability 10 ug/mL;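 0% = killed and 100% = untreated cells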
Numbers without * were called inactive; i = inactive; / = not tested or not shown; & = joins results of further samples.

SMILES	total CFTR	total CFTR fold 10 ug/mL	total CFTR viability 10 ug/mL	others
CC(O)CN1CCN(CC(=O)O)CCN(CC(=O)O)CCN(CC(=O)O)CC1 (centres undefined)	i	/	/	total CFTR fold 25 µM=1.3;total CFTR viability 25 µM=90
O=S(=O)(Cc1c(Cl)cccc1Cl)C1CCCc2ccccc21 (centres undefined)	i	1	81
O=C1C(=O)N(C2CCCC2)C(=O)N1CN1CCN(Cc2ccc(Cl)s2)CC1	i	1.1	114
O=S1(=O)CCC(N2CCN(Cc3nnnn3-c3ccccc3)CC2)C1 (centres undefined)	i	1	99
CCN(CC)CCNC(=O)COc1ccc(OC)cc1	i	/	/	total CFTR fold 25 µM=1.2;total CFTR viability 25 µM=103
CNc1ccc([N+](=O)[O-])cc1S(=O)(=O)N1CCOCC1	i	0.94	101
COCCc1ccc(S(=O)(=O)NC2(c3ccc(Br)cc3)CCC2)cc1	i	0.82	84
CC1(C)CC(NCC(O)COC(c2ccc(F)cc2)c2ccc(F)cc2)CC(C)(C)N1 (centres undefined)	i	1.1	87
O=S(=O)(NCc1ccccc1S(=O)(=O)N1CCCCC1)c1ccc2c(c1)OCCO2	i	0.97	86
Cc1cc(C(=O)CSc2nnc(NC3CC3)s2)c(C)n1CC1CCCO1 (centres undefined)	i	0.85	81
Cc1nc(NC(=O)CCCN2C(=O)NC(C)(C)C2=O)sc1C	i	1	97
Cc1cc(C(=O)OC(C)C(=O)Nc2sccc2C(N)=O)on1 (centres undefined)	i	0.96	96

Of the compounds above, these contain two or more sulfur atoms:
SMILES	total CFTR	total CFTR fold 10 ug/mL	total CFTR viability 10 ug/mL	others
O=S(=O)(NCc1ccccc1S(=O)(=O)N1CCCCC1)c1ccc2c(c1)OCCO2	i	0.97	86
Cc1cc(C(=O)CSc2nnc(NC3CC3)s2)c(C)n1CC1CCCO1 (centres undefined)	i	0.85	81

Additional records:
SMILES	total CFTR	total CFTR fold 10 ug/mL	total CFTR viability 10 ug/mL	others
C#CCN(C)Cc1ccccc1	i	/	/	total CFTR fold 25 µM=1.1;total CFTR viability 25 µM=84
Oc1cc2c(cc1CN1CCC(c3nc4ccccc4o3)CC1)OCO2	i	0.94	81
CN(Cc1ccc(Cl)s1)c1ccc(S(C)(=O)=O)cc1S(C)(=O)=O	i	1	83
CCN(CC)Cc1coc(-c2ccc(Cl)cc2)n1	i	1	106
CC(C)(C)CC(C)(C)NS(=O)(=O)c1ccc(Cl)s1	i	1	80
CC1CCCN(S(=O)(=O)NCC2(c3ccc4c(c3)OCCO4)CCCC2)C1 (centres undefined)	i	0.86	68
CC(C)CSc1n[nH]c(C(C)(C)C)n1	i	0.99	88
O=[N+]([O-])c1c(Nc2ccccc2)nc2sccn12	i	1.1	86
CCc1ccc(C(=O)Cn2cnc3ccsc3c2=O)s1	i	1	92
O=C(c1ccc2nc3ccccc3c(=O)n2c1)c1ccccc1O	i	0.98	96
CC1CN(Cn2nc(-c3cccs3)n(C3CC3)c2=S)CC(C)O1 (centres undefined)	i	1.1	88
O=C(O)CCc1nc2ccccc2[nH]1	i	/	/	total CFTR fold 25 µM=1.1;total CFTR viability 25 µM=96
COc1ccc(OC)c2c1CN(C(C)c1nc(N)nc(N(C)C)n1)CC2O (centres undefined)	i	1.1	95
CN(C)c1nc(N)nc(CN2CCOCC2)n1	i	1.1	101
C=CCOc1ccc(CN(C)c2nc(CN3CCOCC3)nc3sc4c(c23)CCC4)cc1	i	0.92	104
O=c1[nH]c(CSC2=NCCN2)nc2cc(Cl)ccc12	2	1.5	77
c1ccc(-c2cc(Sc3nnnn3-c3ccccc3)nc3cc4c(cc23)OCCO4)cc1	i	1.1	78
Cc1cc(C)c(C(=O)CSc2n[nH]c(=O)n2C2CC2)c(C)c1	i	1	107
OCCNCCSc1nc(C2CCCCC2)n(-c2ccccc2Cl)n1	i	0.95	107
Nc1ccccc1N1CCC(O)CC1	i	1	107
FC(F)Oc1ccc(C(Nc2ccc3nnnn3n2)c2ccccc2)cc1 (centres undefined)	i	0.94	82
C/C=C/C=C/C(=O)NC1CCN(C(=O)OCC)CC1	i	1.1	98
CC1CC1C(=O)NCCC(=O)NCCc1cccs1 (centres undefined)	i	0.99	96
Cc1ccc(C)c(S(=O)(=O)C2(C(=O)NC3CCN(S(C)(=O)=O)CC3)CCCC2)c1	i	1	94
CN(Cc1ccc(C(C)(C)C)cc1)Cc1cccc2ccccc12	i	/	/	total CFTR fold 25 µM=1.1;total CFTR viability 25 µM=106
O=C1CC[C@@H](C(=O)N2CSC[C@H]2C(=O)O)N1	i	/	/	total CFTR fold 25 µM=1;total CFTR viability 25 µM=94
CCOC(=O)c1oc2ccccc2c1Cn1cc([N+](=O)[O-])cc(C#N)c1=O	i	0.98	102
Cc1cc(Nc2ccc(F)cc2)n2ncnc2n1	i	0.92	97
COCCN1C(=O)C(=O)/C(=C(/O)c2ccc(OC)cc2C)C1c1cc(OC)c(OC)c(OC)c1 (centres undefined)	i	1.2	104
CC(C)C(=O)Oc1ccc(CO)cc1[C@H](CCN(C(C)C)C(C)C)c1ccccc1	i	/	/	total CFTR fold 25 µM=1.1;total CFTR viability 25 µM=90
CC(C)C(NS(=O)(=O)c1cn(C)c(=O)n(C)c1=O)c1cccs1 (centres undefined)	i	1.1	103
COc1ccc2c(c1)N(CN1CCN(C3CCS(=O)(=O)C3)CC1)C(=O)C2=O (centres undefined)	i	1.1	107
O=C1CCCc2cc(S(=O)(=O)Nc3cc(F)ccc3F)ccc2N1	i	0.94	102
FC(F)(F)c1ccc(N2CCC(NCc3cccc4c3OCCCO4)CC2)nc1	i	0.88	94
Cc1nnc(SCc2cc3c(cc2Br)OCCO3)s1	i	1	107
CN1CCN(c2cnn(Cc3ccccc3)c(=O)c2Cl)CC1	i	0.96	90
Cc1cccc(C)c1OCC(O)CN(CCC(C)C)CCC(C)C (centres undefined)	i	1.1	98
O=C(Nc1nc(CC(=O)N2CCN(S(=O)(=O)N3CCCC3)CC2)cs1)C1CC1	i	1.2	99
Cc1ccc(C(C)NS(=O)(=O)Cc2ccc(F)cc2)o1 (centres undefined)	i	0.96	83
Cc1ccc(CN(C)C(=O)CN2C(=O)C(=O)N(CC(C)C)C2=O)o1	i	0.97	100
O=S(=O)(c1cccc2nsnc12)N1CCN(CC(F)(F)F)CC1	i	1.1	94
Cn1cc(/C=C2\N=C(c3cccs3)OC2=O)cn1	i	1.1	78
O=C1Cc2cc(C3=NNC(=Nc4ccc(F)cc4)SC3)ccc2N1	i	0.99	97
O=C(NCCN1CCS(=O)(=O)CC1)c1nc(N2CCCCC2)ncc1Cl	i	1	82
CCCCNC(=O)CSc1ncnc2sc3c(c12)CCC3	i	0.97	77
CCc1cc2oc(=O)cc(COC(=O)c3cnc4n(c3=O)CCS4)c2cc1Cl	i	0.91	83
Cc1cc2oc(=O)cc(CN3C(=O)NC(C)(c4ccc(F)c(F)c4)C3=O)c2cc1C (centres undefined)	i	0.99	74
CC(C)C[C@H](NC(=O)[C@H](Cc1ccccc1)NC(=O)c1cnccn1)B(O)O	2.1	/	/	total CFTR fold 25 µM=3.6;total CFTR viability 25 µM=64

Pulled by structure from above (2):
SMILES	total CFTR	total CFTR fold 10 ug/mL	total CFTR viability 10 ug/mL	others
O=C1C(=O)N(C2CCCC2)C(=O)N1CN1CCN(Cc2ccc(Cl)s2)CC1	i	1.1	114
C=CCOc1ccc(CN(C)c2nc(CN3CCOCC3)nc3sc4c(c23)CCC4)cc1	i	0.92	104

Other results follow:
SMILES	total CFTR	total CFTR fold 10 ug/mL	total CFTR viability 10 ug/mL	others
Brc1cccc(Cn2cnc3ccccc32)c1	i	0.93	88
CCc1oc2ccccc2c1CN(C)CN1C(=O)NC2(CCC(C)CC2)C1=O (centres undefined)	i	0.97	102
NS(=O)(=O)c1cc2c(cc1Cl)NC1(CCCCC1)NS2(=O)=O	i	1	98
CC1(C(=O)Nc2nc3ccc(S(C)(=O)=O)cc3s2)Cc2ccccc2C(=O)O1 (centres undefined)	i	0.88	89
O=C(COc1ccc2ccc(=O)oc2c1)NCC1COc2ccccc2O1 (centres undefined)	i	0.97	91
CCn1c(C)cc(C(=O)Cn2cnc3sc4c(c3c2=O)CCC4)c1C	i	0.99	95
Cc1[nH]c(C)c(Cl)c(=O)c1Cl	i	/	/	total CFTR fold 25 µM=1.1;total CFTR viability 25 µM=105
CCC(CC)CN(CC)C(=O)c1sc(NC(=O)c2ccco2)cc1C	i	1.1	82
c1ccc(-c2cc(CSc3nnnn3Cc3ccco3)no2)cc1	i	1.2	101
CNc1snc(C)c1C(=O)NCC1CCCO1 (centres undefined)	i	1	109
NC(=O)NCC1CC1	i	0.97	89
CN1CCN(c2nc(-c3ccc(S(C)(=O)=O)cc3)cs2)CC1	i	1.1	96

For convenience, six of the compounds above.
SMILES	total CFTR	total CFTR fold 10 ug/mL	total CFTR viability 10 ug/mL	others
Cc1[nH]c(C)c(Cl)c(=O)c1Cl	i	/	/	total CFTR fold 25 µM=1.1;total CFTR viability 25 µM=105
CCC(CC)CN(CC)C(=O)c1sc(NC(=O)c2ccco2)cc1C	i	1.1	82
c1ccc(-c2cc(CSc3nnnn3Cc3ccco3)no2)cc1	i	1.2	101
CNc1snc(C)c1C(=O)NCC1CCCO1 (centres undefined)	i	1	109
NC(=O)NCC1CC1	i	0.97	89
CN1CCN(c2nc(-c3ccc(S(C)(=O)=O)cc3)cs2)CC1	i	1.1	96

Additional compounds follow.
SMILES	total CFTR	total CFTR fold 10 ug/mL	total CFTR viability 10 ug/mL	others
Cc1cc(=O)oc2cc(OCC(=O)N3CCNC(=O)C3)ccc12	i	1.1	115
Cc1ccc(CCC2CCN(S(C)(=O)=O)CC2)cc1	i	1	85
O=C(COc1ccc(C2SCCS2)cc1)NC1=NCCS1	i	1.1	90
CC(c1nnc(SCc2ccc(OC(F)(F)F)cc2)n1-c1ccc(Cl)cc1)N(C)C (centres undefined)	i	0.92	85
Clc1ccc(COC(Cn2ccnc2)c2ccc(Cl)cc2Cl)cc1 (centres undefined)	i	/	/	total CFTR fold 25 µM=1.1&0.86;total CFTR viability 25 µM=72&77
O=C(NCC12CC3CC(CC(C3)C1)C2)C1=COCCO1	i	1	91
CCOC(=O)c1c(C)[nH]c(C(=O)CN2C(=O)CC3(CCCCC3)C2=O)c1C	i	1.1	68
O=C(O)CN(CCN(CC(=O)O)CC(=O)O)CCN(CC(=O)O)CC(=O)O	i	/	/	total CFTR fold 25 µM=1.1;total CFTR viability 25 µM=106
C=C(Cl)CN(CCCCC)c1c(N)n(CCCC)c(=O)[nH]c1=O	i	0.86	86
COC(=O)C1(NS(=O)(=O)c2ccc(OC)c(OC)c2)CCCCC1	i	1	94
Nc1ncn([C@H]2C[C@H](O)[C@@H](CO)O2)c(=O)n1	i	/	/	total CFTR fold 25 µM=1.2;total CFTR viability 25 µM=92
CC(=O)CC(c1ccc([N+](=O)[O-])cc1)c1c(O)c2ccccc2oc1=O (centres undefined)	i	/	/	total CFTR fold 25 µM=0.98;total CFTR viability 25 µM=86
CN1CCN(C(C)(C)CNc2ccc([N+](=O)[O-])cc2Cl)CC1	i	0.98	93
Cc1c(C(=O)CN2C(=O)NC3(CCOc4ccccc43)C2=O)sc2ccccc12 (centres undefined)	i	1.1	115
CC1(C2CC2)NC(=O)N(CC(=O)NC2(C#N)CCCC2)C1=O (centres undefined)	i	0.94	102
c1ccc(-c2nnn(Cc3cc(-c4cccs4)on3)n2)cc1	i	0.9	100
NC(=O)Nc1cccc(N)c1	i	1.1	92
CSc1ccc(CN(C)c2nc3ccccc3nc2NS(=O)(=O)c2ccc3c(c2)OCCO3)cc1	i	0.97	82
Cc1cc(C(=O)N2CCN(S(C)(=O)=O)CC2)on1	i	1.1	97
Cc1cc(Sc2nnc(-c3ccccc3)o2)nc(C)n1	i	1.1	79
O=C(OOC(=O)c1ccccc1)c1ccccc1	i	/	/	total CFTR fold 25 µM=1.1;total CFTR viability 25 µM=99
CC(NC(=O)CN1C(=O)C2CCCCC2C1=O)c1ccc(Cl)s1 (centres undefined)	i	0.95	91
CCCn1nnnc1COC(=O)c1[nH]c(CC)c(C(=O)OC)c1C	i	0.92	87
CC(=O)c1c(SCC(=O)NC2CCCCCC2)nc(=O)[nH]c1C	i	1.1	86

By substructure: those above with a tert-butyl group (three)
SMILES	total CFTR	total CFTR fold 10 ug/mL	total CFTR viability 10 ug/mL	others
CC(C)(C)CC(C)(C)NS(=O)(=O)c1ccc(Cl)s1	i	1	80
CC(C)CSc1n[nH]c(C(C)(C)C)n1	i	0.99	88
CN(Cc1ccc(C(C)(C)C)cc1)Cc1cccc2ccccc12	i	/	/	total CFTR fold 25 µM=1.1;total CFTR viability 25 µM=106

Next part
SMILES	total CFTR	total CFTR fold 10 ug/mL	total CFTR viability 10 ug/mL	others
COc1cc(OC)cc(-c2cc(/C=C/c3ccccc3)c(C#N)c3nc4ccccc4n23)c1	i	1.3	94
CC(C)c1nc(CN(C)C(=O)N[C@H](C(=O)N[C@@H](Cc2ccccc2)C[C@H](O)[C@H](Cc2ccccc2)NC(=O)OCc2cncs2)C(C)C)cs1	i	/	/	total CFTR fold 25 µM=0.95;total CFTR viability 25 µM=78
CC1CCc2c(sc3ncnc(OCc4ccc(F)cc4)c23)C1 (centres undefined)	i	0.97	111
CCN(CC(C)C)C(=O)c1sc2nc(C3CC3)nc(C)c2c1C	i	0.91	84
Cc1cc(C(C)(C)C)cc(C)c1CCNS(=O)(=O)N(C)C	i	0.95	92
C=CCNc1nnc(SCc2cc(=O)n3cc(Br)ccc3n2)s1	i	1.1	90
CC(C)Cn1c(SCCO)nc2sc3c(c2c1=O)CCC3	i	1	86

Only part of the results is shown; rates above refer to the full screens.
